Source: PubChem (Broad Institute)
Vaccinia stage: blocks a specific stage of Vaccinia orthopoxvirus infection; Vaccinia-infected cells, mCherry/Venus stage reporter fluorescence; stronger effect = lower value; some inactives read as strong as hits; activity change (mCherry), % (no concentration beside the values); 0.01% of 89,000 active;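 active means mCherry past -33% and 40 or more points under the early reporter, replicates agreeing; inconclusive means past -33% without that gap or agreement; tested in A549 cells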;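 further: scaled between vehicle wells and reference inhibitor wells; 23 nL library stock went into each well; one replicate is shown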
Vaccinia stage Venus: second read-out of Vaccinia stage, no call of its own (marks repeat the call); activity change (Venus), %; measured here: Venus reporter, other viral stage;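 negative = less Venus signal; first of two replicates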
Numbers without * were called inactive; ? = inconclusive; . = not tested or not shown.

SMILES	Vaccinia stage	Vaccinia stage Venus
COc1cccc(S(=O)(=O)N2CCCCN3[C@H](CO)[C@@H](c4ccc(-c5cncnc5)cc4)[C@@H]3C2)c1	18.5	-3.0
Cc1ccc(S(=O)(=O)Nc2cccc3c2O[C@H](CN(C)C(=O)Nc2ccccc2)[C@H](C)CN([C@H](C)CO)C3=O)cc1	0.0	-11.5
CO[C@H]1CN(C)C(=O)c2cc(NC(=O)c3cccc(F)c3)ccc2OC[C@H](C)N(CC2CC2)C[C@@H]1C	-6.9	-2.9
COc1ccc(COC[C@@]23Oc4ccccc4[C@@H](NC(=O)N2C)[C@H]3CO)cc1	-21.2	-19.0
N#C[C@H]1[C@@H](c2ccccc2C2=CCCC2)[C@H](CO)N1C(=O)C1CCC1	11.0	7.3
CN1CCN(C(=O)C[C@H]2CC[C@H]3[C@@H](COc4ccc(NC(=O)c5cscn5)cc4C(=O)N3C)O2)CC1	-2.7	8.8
CC(C)NC(=O)NCC[C@@H]1CC[C@@H](NS(=O)(=O)c2ccccc2)[C@H](CO)O1	10.6	15.3
C[C@@H]1CN([C@@H](C)CO)C(=O)c2cc(NS(C)(=O)=O)ccc2O[C@@H](C)CCCCO[C@H]1CN(C)S(=O)(=O)c1cn(C)cn1	3.2	7.6
CCCC(=O)Nc1ccc2c(c1)C(=O)N(C)C[C@@H](OC)[C@@H](C)CN(Cc1ccccc1)[C@H](C)CO2	-22.3	-20.8
COc1cccc(S(=O)(=O)N[C@@H]2CC[C@H](CC(=O)NCc3ccc(F)cc3)O[C@@H]2CO)c1	-2.7	-3.0
CCCC(=O)Nc1ccc2c(c1)C(=O)N(C)[C@@H]1CC[C@@H](CC(=O)NCC3CCCCC3)O[C@@H]1CO2	1.1	-6.5
C[C@@H]1CN([C@@H](C)CO)C(=O)c2cccc(NC(=O)NC3CCCCC3)c2O[C@@H]1CN(C)Cc1ccc(C(=O)Nc2ccccc2N)cc1	-17.6	-12.4
C[C@@H]1CN([C@@H](C)CO)C(=O)Cc2cc(NC(=O)CCCCCC(=O)Nc3ccccc3N)ccc2O[C@@H]1CN(C)S(=O)(=O)c1ccccc1	9.6	4.9
C[C@@H]1CN([C@H](C)CO)C(=O)Cc2cc(NS(C)(=O)=O)ccc2O[C@@H]1CN(C)Cc1ccc(C(F)(F)F)cc1	?	.
C[C@@H]1CN([C@H](C)CO)C(=O)Cc2cc(NC(=O)Cc3ccccc3)ccc2O[C@@H]1CN(C)CC1CC1	-5.3	-4.4
COC(=O)[C@@H]1[C@@H](CO)[C@@H]2Cn3c(ccc(-c4ccccc4F)c3=O)[C@H]1N2CC1CCCC1	-8.9	-7.2
C[C@H]1CN([C@@H](C)CO)C(=O)Cc2cc(NC(=O)Nc3cccc4ccccc34)ccc2O[C@H]1CN(C)C	-2.5	-5.3
O=C1N[C@@H](Cc2ccccc2)COCc2cn(nn2)CC[C@H]1Cc1ccccc1	9.7	7.2
COCCNC(=O)C[C@H]1C[C@H]2c3cc(NS(=O)(=O)c4ccccc4)ccc3O[C@H]2[C@@H](CO)O1	9.9	-0.6
COCC(=O)NC[C@@H]1[C@H](c2ccccc2)[C@@H](CO)N1C(C)=O	16.9	4.1
O=C(C[C@@H]1C[C@@H]2c3cc(NC(=O)c4ccc5c(c4)OCO5)ccc3O[C@@H]2[C@@H](CO)O1)NCc1ccccn1	3.3	10.4
O=C(C[C@@H]1C=C[C@H](NC(=O)CN2CCOCC2)[C@@H](CO)O1)NCCc1ccncc1	3.6	-0.7
O=C(Nc1cccc(F)c1)N1C[C@@H]2[C@H](c3ccccc31)[C@H](CO)N2C(=O)c1ccccc1F	0.9	4.1
CCC(=O)N1C[C@@H](C)[C@H](OC)CN(C)C(=O)c2ccc(NC(=O)C3CC3)cc2OC[C@@H]1C	3.7	-3.5
COc1ccc(NC(=O)Nc2cccc3c2O[C@H](CN(C)Cc2ccccc2)[C@@H](C)CN([C@@H](C)CO)C3=O)cc1	12.8	14.4
SMILES	Vaccinia stage	Vaccinia stage Venus
C[C@@H]1CN([C@H](C)CO)C(=O)c2cccc(NC(=O)Nc3ccc4c(c3)OCO4)c2O[C@@H]1CN(C)Cc1ccc2c(c1)OCO2	9.4	7.1
CC(C)CC#Cc1cnc2c(c1)C(=O)N([C@@H](C)CO)C[C@@H](C)[C@@H](CN(C)Cc1ccc3c(c1)OCO3)O2	?	.
Cc1ccc(S(=O)(=O)N(C)C[C@@H]2Oc3ccc(NC(=O)Cn4cnnn4)cc3CC(=O)N([C@@H](C)CO)C[C@H]2C)cc1	17.7	17.6
C[C@@H]1CN([C@@H](C)CO)C(=O)Cc2cc(NC(=O)CCCN(C)C)ccc2O[C@@H]1CN(C)S(=O)(=O)c1ccc(Cl)cc1	3.1	-2.0
COc1ccccc1S(=O)(=O)N(C)C[C@@H]1OCc2cn(nn2)CCCC(=O)N([C@H](C)CO)C[C@H]1C	9.2	5.6
C[C@H]1CN([C@@H](C)CO)S(=O)(=O)c2ccc(C#Cc3ccncc3)cc2O[C@@H]1CN(C)S(=O)(=O)c1ccccc1	?	.
O=S(=O)(c1ccccc1)N1CC[C@@H]2[C@@H](CO)Nc3ccc(Br)cc3[C@@H]21	-25.9	-22.0
C[C@H]1CN([C@@H](C)CO)C(=O)c2cccc(NC(=O)Nc3ccc4c(c3)OCO4)c2O[C@H]1CN(C)C(=O)NC1CCCCC1	?	.
COc1cccc(NC(=O)N(C)C[C@@H]2Oc3cc(-c4ccccc4F)ccc3S(=O)(=O)N([C@H](C)CO)C[C@@H]2C)c1	-31.9	-22.8
C[C@@H]1CN([C@@H](C)CO)C(=O)c2cc(NC(=O)Cc3cn(C)c4ccccc34)ccc2O[C@H]1CN(C)CC1CCCCC1	?	.
O=C(Nc1ccc(Cl)c(Cl)c1)N[C@@H]1CC[C@@H](CCn2cc(C3CCCC3)nn2)O[C@@H]1CO	0.3	-2.7
C[C@H]1CN([C@@H](C)CO)C(=O)c2cc(NC(=O)Nc3cccc4ccccc34)ccc2O[C@@H]1CN(C)Cc1ccccc1	-18.0	-10.1
C[C@H](O)C#Cc1ccc([C@@H]2[C@H]3CN(S(=O)(=O)c4ccccc4)CCCCN3[C@H]2CO)cc1	17.6	4.2
CCC(=O)N1CC2(C1)[C@H](c1ccccc1)[C@@H](CO)N2C(=O)c1ccccc1	-4.9	-1.5
Cc1noc(C)c1NC(=O)Nc1ccc2c(c1)C(=O)N([C@@H](C)CO)C[C@@H](C)[C@H](CN(C)Cc1ccc(C(=O)O)cc1)O2	22.2	8.9
C[C@@H]1CN([C@H](C)CO)C(=O)c2cc(C3=CCCCC3)cnc2O[C@@H]1CN(C)C(=O)Nc1ccc(F)cc1	-6.4	-6.2
C[C@@H]1CN([C@@H](C)CO)C(=O)c2c(c3ccccc3n2C)-c2ccccc2CO[C@H]1CN(C)C(=O)Cc1ccccc1	?	.
C[C@@H]1CCCCO[C@@H](CN(C)S(=O)(=O)c2cn(C)cn2)[C@H](C)CN([C@@H](C)CO)C(=O)c2cc(NS(=O)(=O)c3ccc(F)cc3)ccc2O1	23.8	21.5
CO[C@@H](CN(C)S(=O)(=O)c1cccc(Cl)c1)[C@@H](C)CN(C(=O)Nc1ccccc1F)[C@@H](C)CO	-13.4	-4.4
C[C@H](CO)N1C[C@H](C)[C@@H](CN(C)Cc2ccc(C(F)(F)F)cc2)Oc2ccc(NS(C)(=O)=O)cc2C1=O	-10.4	-10.0
COc1ccc(NC(=O)N(C)C[C@@H]2OCCCC[C@H](C)Oc3ccc(NC(=O)CCC(F)(F)F)cc3C(=O)N([C@H](C)CO)C[C@H]2C)cc1	11.7	4.7
CNC[C@H]1Oc2ncc(C#Cc3ccccc3F)cc2C(=O)N([C@@H](C)CO)C[C@H]1C	-9.7	-2.1
CCCNC(=O)N1[C@H](CO)[C@H]2c3ccccc3N(C)C[C@H]21	-0.6	-1.2
C[C@@H]1CN([C@H](C)CO)S(=O)(=O)c2ccc(C#Cc3ccccc3)cc2O[C@@H]1CN(C)S(=O)(=O)c1ccccc1F	-28.1	-16.8
O=C(CN1CCOCC1)NCC[C@H]1CC[C@@H](NC(=O)c2ccc3c(c2)OCO3)[C@H](CO)O1	3.3	1.7
SMILES	Vaccinia stage	Vaccinia stage Venus
C[C@H]1CN([C@@H](C)CO)C(=O)c2cc(NC(=O)Nc3ccc(C(F)(F)F)cc3)ccc2O[C@H]1CN(C)CC1CCCCC1	-6.0	0.7
COc1ccc(NC(=O)Nc2ccc3c(c2)C(=O)N([C@H](C)CO)C[C@H](C)[C@@H](CN(C)S(=O)(=O)c2ccc(C)cc2)O3)cc1	12.3	17.9
C[C@@H]1CN([C@H](C)CO)C(=O)Cc2cc(NC(=O)Nc3ccc(F)cc3)ccc2O[C@H]1CN(C)Cc1ccccc1	-17.2	-12.9
C[C@@H]1CN([C@H](C)CO)C(=O)c2cccc(NC(=O)C3CCOCC3)c2O[C@@H]1CN(C)C(=O)Nc1cccc2ccccc12	8.3	8.1
O=C(NC1Cc2ccccc2C1)[C@@H]1[C@@H](CO)[C@@H]2Cn3c(ccc(C4=CCCCC4)c3=O)[C@H]1N2CC1CC1	-21.6	-30.3
C[C@@H]1CN([C@@H](C)CO)S(=O)(=O)c2ccc(-c3cccnc3)cc2O[C@H]1CN(C)C(=O)CC1CC1	18.7	7.6
CCCNC(=O)C[C@@H]1C[C@H]2c3cc(NC(=O)CC4CC4)ccc3O[C@H]2[C@H](CO)O1	2.5	7.8
COc1ccc(CNC(=O)C[C@@H]2C[C@H]3c4cc(NC(=O)C5CCC5)ccc4O[C@H]3[C@H](CO)O2)cc1	13.5	10.7
Cc1cccc(S(=O)(=O)N2CCCCN3[C@H](C2)[C@H](c2ccc(-c4ccncc4)cc2)[C@@H]3CO)c1	-20.4	-20.9
C[C@H](CO)N1C[C@H](C)[C@H](CN(C)C(=O)NC2CCCCC2)OCCCC[C@H](C)Oc2ccc(NS(=O)(=O)c3cccs3)cc2C1=O	9.5	0.3
O=C(Nc1cccc(F)c1)N1CCCCN2[C@H](CO)[C@@H](c3ccc(C#Cc4ccccc4)cc3)[C@H]2C1	?	.
O=C(Cc1ccncc1)N1CCCCN2[C@H](CO)[C@@H](c3ccc(C#CC4(O)CCCC4)cc3)[C@@H]2C1	16.5	11.0
CN1CCN(C(=O)C[C@H]2C=C[C@H](NS(=O)(=O)c3cccc(F)c3)[C@H](CO)O2)CC1	-14.9	-11.5
Cc1ccc(S(=O)(=O)NCC[C@@H]2CC[C@H](NC(=O)Nc3cccc(F)c3)[C@@H](CO)O2)cc1	-28.6	-15.7
CO[C@@H]1CN(C)C(=O)c2cc(NS(C)(=O)=O)ccc2OC[C@@H](C)N(CC2CC2)C[C@H]1C	-7.1	-2.7
Cn1cnc(S(=O)(=O)N[C@@H]2C=C[C@@H](CC(=O)NCC3CCCCC3)O[C@H]2CO)c1	2.7	3.4
C[C@@H]1CN([C@H](C)CO)C(=O)c2cc(NC(=O)C3CC3)ccc2O[C@H]1CN(C)Cc1ccc2c(c1)OCO2	4.9	13.0
CCO[C@H]1OC(C(N)=O)=C[C@@H](c2csc3ccccc23)[C@@H]1CCCO	5.1	6.8
COc1ccc(NC(=O)N(C)C[C@@H]2Oc3ccc(NC(=O)NC(C)C)cc3C(=O)N([C@@H](C)CO)C[C@@H]2C)cc1	15.2	4.9
CCCNC(=O)Nc1ccc2c(c1)C(=O)N(C)C[C@H](OC)[C@@H](C)CN(C(C)=O)[C@@H](C)CO2	-2.6	9.0
Cc1ccc(-c2cnc3c(c2)C(=O)N([C@@H](C)CO)C[C@H](C)[C@@H](CN(C)S(C)(=O)=O)O3)cc1	-8.9	-6.6
COc1ccc(-c2ccccc2[C@@H]2[C@@H](C#N)N(C(=O)C3CCCCC3)[C@H]2CO)cc1	1.7	-2.3
C[C@H]1CCCCO[C@@H](CN(C)Cc2ccncc2)[C@@H](C)CN([C@@H](C)CO)C(=O)c2cc(NS(=O)(=O)c3ccc(Cl)cc3)ccc2O1	?	.
Cc1noc(C)c1NC(=O)Nc1ccc2c(c1)CC(=O)N([C@@H](C)CO)C[C@@H](C)[C@@H](CN(C)Cc1ccc(-c3ccccc3)cc1)O2	-23.1	-9.3
COCC(=O)N1CC[C@@H]2[C@@H](CO)Nc3ccc(-c4ccc(C(=O)N(C)C)cc4)cc3[C@@H]21	14.6	7.8
O=C(N[C@@H]1CC[C@@H](CCNC(=O)c2cnccn2)O[C@@H]1CO)c1ccc2c(c1)OCO2	0.5	-3.6
COc1ccc(NC(=O)Nc2cccc3c2O[C@H](CN(C)Cc2ccncc2)[C@@H](C)CN([C@H](C)CO)C3=O)cc1	16.4	7.1
C[C@@H]1CN([C@H](C)CO)C(=O)c2cc(NC(=O)CCN3CCOCC3)ccc2O[C@H]1CN(C)Cc1ccc(Cl)c(Cl)c1	-5.7	-8.6
CO[C@H](CN(C)C(=O)c1ccccc1F)[C@H](C)CN([C@H](C)CO)S(=O)(=O)c1ccc(Cl)cc1	10.2	7.6
O=C(NC1CCCC1)N1CCCCN2[C@@H](CO)[C@H](c3ccc(-c4ccccc4)cc3)[C@@H]2C1	?	.

An excerpt (hit frequency here may not be typical).
